# HCMV UL50-53 inh – inhibitors of HCMV UL50-UL53 nuclear egress complex interaction; HTRF UL50-UL53 interaction, normalized percent inhibition; inhibition, % (test concentration not listed); 0.15% of 190,000 active;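 active means both replicates at 50% or more, plus weaker picks with an unusually low signal ratio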;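 further: stock transfer was 100 nL into about 20 µL; 0% = negative control wells and 100% = wells with untagged competitor protein; inactives centre near -12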
# Sa growth 42C – S. aureus growth inhibition. S. aureus RN4220 growth, OD600, 20 h, 42 °C; stronger effect = lower value. relative growth, % (test concentration not listed). 0.53% of 170,000 active;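 active means growth at 42 °C up to 50% and 20 or more points under that at 30 °C, or under 10% at both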;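 further: 300 nL library stock went into each well; scaled to the means of positive and negative controls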
# GIV-Gai inh – GIV-Galpha-i interaction inhibition; P08753; 0.42% of 210,000 active; Galpha-i3/FITC-GIV peptide fluorescence polarization, 90 min; stronger effect = lower value; scaled: aluminum fluoride 0%, vehicle 100%; percent of control (FP), % (concentration not given with the values); AID 1224905;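 active means replicate mean at 85% of control or lower, very high polarization wells dropped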;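 further: wells of about 15 µL received 100 nL stock; the first replicate is given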
# Target sequence (P08753 whole entry, looked up): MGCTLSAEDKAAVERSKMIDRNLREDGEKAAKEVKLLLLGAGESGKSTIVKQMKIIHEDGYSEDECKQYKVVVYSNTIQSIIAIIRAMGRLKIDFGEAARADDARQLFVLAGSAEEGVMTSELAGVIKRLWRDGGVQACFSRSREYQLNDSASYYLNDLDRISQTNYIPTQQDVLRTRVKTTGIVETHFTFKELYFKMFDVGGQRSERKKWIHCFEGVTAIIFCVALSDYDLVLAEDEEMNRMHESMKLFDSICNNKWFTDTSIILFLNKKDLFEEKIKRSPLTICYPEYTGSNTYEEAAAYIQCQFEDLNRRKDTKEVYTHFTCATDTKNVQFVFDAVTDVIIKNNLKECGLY
# Sa growth 42C second temp – further read-out of Sa growth 42C, marked with its call; relative growth, %; measured here: growth at 30 °C;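 optical density after 20 h as mean of two plates; 100% = untreated growth and lower means inhibition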
# * marks the source's active call; other numbers are inactive results; · = no result given; & = joins results of further samples.
SMILES	HCMV UL50-53 inh	Sa growth 42C	Sa growth 42C second temp	GIV-Gai inh
Cc1sc2ncn(CC(=O)N3CCN(c4ccc(F)cc4)CC3)c(=O)c2c1S(=O)(=O)N1CCCCC1	-15	114	87	101
Cc1cccc(-c2nc3cc(NC(=O)c4cc([N+](=O)[O-])c(C)c([N+](=O)[O-])c4)ccc3o2)c1	-12	·	·	103
CCC1CN(C(=O)N2CCC(C(=O)NCc3cc(OC)c(OC)c(OC)c3)CC2)c2ccccc2O1 (stereo not given)	-13	137	94	101
O=C(NCc1ccccn1)c1cnc2sc(N3CCCCC3)nn2c1=O	-15	·	·	100
CC(Sc1nnc(-c2cccs2)n1-c1ccccc1)C(=O)c1c(N)n(C)c(=O)n(C)c1=O (stereo not given)	9	107	104	·
O=C(CCc1nc2ccccc2[nH]1)NCCc1ccccc1	-6	93	82	101
CC12CC(c3ccccc3O1)N(C(=O)c1ccccc1)C(=O)N2c1ccccc1 (stereo not given)	·	95	85	98
Cc1oc2ncn(C)c(=O)c2c1C(=O)NCc1ccc(Cl)cc1	·	94	89	108
O=C(CC(=O)NC1CCCCC1)NC1CCCCC1	-26	109	84	·
CN1CCC(=NNC(=O)CN(c2cccc(Br)c2)S(C)(=O)=O)CC1	-17	95	92	98
Cn1c(=O)c2c(nc(N3CCOCC3)n2Cc2ccccc2Cl)n(C)c1=O	-15	104	92	102
O=C(Nc1ccc(CCc2nc3ccccc3n2-c2ccccc2)cc1)c1ccncc1	-28	·	·	104
COc1cc(NC(=O)c2ccc(C)c(Cl)c2)ccc1NC(=O)c1cc2ccccc2o1	-37	111	90	101
CCOc1ccc(C(=O)NC(C)c2ccccc2)cc1 (stereo not given)	-2	97	85	·
COc1ccc(C2C3=C(CCCC3=O)Nc3n[nH]c(-c4ccc(Cl)cc4)c32)cc1OC (stereo not given)	·	84	60	108
CC1=C(C(=O)OCC2CCCCC2)C(c2ccccc2F)CC(=O)N1 (stereo not given)	-4	111	98	103
COc1ccccc1Nc1cc(N(C)C)c2nonc2c1[N+](=O)[O-]	-12	·	·	114
COc1ccc(C2=NN(C(=O)CCCC(=O)O)C(c3cccc(OC)c3OC)C2)cc1 (stereo not given)	-42	·	·	117
Cc1cc(NC(=O)NCc2ccc3c(c2)CCN3C(=O)c2ccccc2)ccc1Br	·	100	103	106
CC(=O)NC(=S)N1CCCc2ccccc21	-2	87	107	107
CCN(c1ccc(C)cc1C)S(=O)(=O)c1nnc(NC(=O)c2ccc(F)cc2)s1	-20	81	53	105
CCn1c2ccccc2c2cc(C=C(C#N)C#N)ccc21	-12	87	78	136
O=C(O)CSCC(=O)NC1Cc2ccccc2C1	-13	98	93	99
O=C(/C=C/c1ccccc1)Oc1ccc2ccccc2c1	·	89	98	104
COc1ccc(NC(=O)CN2N=C(c3ccccc3)c3ccccc3S2(=O)=O)cc1	-16	·	·	100
CC(Cc1cccs1)C(=O)O (stereo not given)	-19	116	90	103
COc1ccc(/C=C/C(O)=C2/C(=O)N(C)C34CCCC3C2c2ccccc2O4)cc1 (stereo not given)	·	123	91	104
CC1C/C(=C/c2ccco2)C(=O)/C(=C/c2ccco2)C1 (stereo not given)	·	56	38	157
Cc1ccc(SCCn2cc(S(=O)(=O)N3CCCC3)ccc2=O)cc1	-7	105	100	·
CC(C)CC(NC(=O)c1ccc2c(c1)OCCO2)C(=O)O (stereo not given)	-7	·	·	105

# Structures from the list above with an NH in an aromatic ring, in the order listed:
SMILES	HCMV UL50-53 inh	Sa growth 42C	Sa growth 42C second temp	GIV-Gai inh
O=C(CCc1nc2ccccc2[nH]1)NCCc1ccccc1	-6	93	82	101
COc1ccc(C2C3=C(CCCC3=O)Nc3n[nH]c(-c4ccc(Cl)cc4)c32)cc1OC (stereo not given)	·	84	60	108

# Arranged by value in GIV-Gai inh (largest number first): some entries from above.
molecule | Sa growth 42C second temp | GIV-Gai inh
CCn1c2ccccc2c2cc(C=C(C#N)C#N)ccc21 | 78 | 136
CC(=O)NC(=S)N1CCCc2ccccc21 | 107 | 107
CC(C)CC(NC(=O)c1ccc2c(c1)OCCO2)C(=O)O (stereo not given) | · | 105
O=C(Nc1ccc(CCc2nc3ccccc3n2-c2ccccc2)cc1)c1ccncc1 | · | 104
CC(Cc1cccs1)C(=O)O (stereo not given) | 90 | 103
CCC1CN(C(=O)N2CCC(C(=O)NCc3cc(OC)c(OC)c(OC)c3)CC2)c2ccccc2O1 (stereo not given) | 94 | 101

# Next section
SMILES	HCMV UL50-53 inh	Sa growth 42C	Sa growth 42C second temp	GIV-Gai inh
N#Cc1ccccc1OCCCn1cnc2ccccc2c1=O	-16	97	94	106
CCOC(=O)C1=NN(c2ccccc2)CC1C(=O)OC (stereo not given)	-43	104	98	·
CCC(Oc1ccccc1)C(=O)Nc1ccc(Cl)cn1 (stereo not given)	16	80	103	108
O=C(OCc1cncs1)c1ccccc1	-9	·	·	108
O=C(Nc1ccccc1)N1c2ccccc2CCc2ccccc21	·	91	108	110
CCC(=O)Nc1cccc(C(=O)Nc2cc(C)on2)c1	-9	85	66	104
CC(CO)(CO)NC(=S)Nc1ccc(F)c(Cl)c1	-14	76	77	101
CC(=O)N1CCc2cc(Br)cc(S(=O)(=O)CCC(=O)NCc3ccc(F)cc3)c21	4	92	90	98
CCn1c(CSc2nc3ccccc3s2)nnc1SCC(=O)c1ccc(O)c(O)c1	-20	120	80	·
COc1ccc(C(=O)Nc2cccc3nsnc23)c(OC)c1	-27	·	·	101
c1ccc2c3c(cc(N4CCOCC4)c2c1)OC1(N2CCOCC2)CCCCC1O3 (stereo not given)	-23	103	96	103
c1ccc(-c2noc(-c3cccnc3N3CCN(c4ccccc4)CC3)n2)cc1	-25	·	·	98
Cc1ccc(C2NCCS2)cc1 (stereo not given)	-43	84	89	102
Cc1cc(-c2ccccc2N)nc2ccccc12	-24	94	75	·
O=C(NCc1ccco1)c1ccc(CS(=O)(=O)c2ccccc2)cc1	10	96	91	107
Cc1nc2cccnc2n1-c1ccc(CC(=O)Nc2ccc(F)cc2)cc1	-2	·	·	107
O=C(O)c1cc(=O)[nH]c2c(C(F)(F)F)cccc12	-12	105	94	106
CCCSCCCN1C(=O)c2nc3ccccc3n2CC1(C)C(=O)NC1CCCC1 (stereo not given)	-54	·	·	100
C=CCn1sc(=N)c(C#N)c1N	-14	92	81	105
COc1ccccc1CNC(=O)c1ccc2c(c1)nc(C)n2-c1cccc(C)c1	·	64	40	97
CCOc1ccc(NC(=O)c2cc3n(n2)CCCN(Cc2ccccc2)C3=O)cc1	-12	112	94	109
CCSc1nnc(NC(=O)c2cccn(OCc3cccc(Cl)c3)c2=O)s1	·	96	84	106
O=C(NN=C1C2CC3CC(C2)CC1C3)c1ccncc1	3	89	76	97
Cc1cc2ccccn2c1C(=O)c1cccc(S(=O)(=O)N(C)C)c1	-84	88	90	·
CCOC(=O)c1c(NC(=O)C(C)Sc2nc3c(cnn3-c3ccc(C)cc3)c(=O)[nH]2)sc2c1CCC2 (stereo not given)	-28	92	79	101
CCOc1ccc(CCn2c(C)c(C)c3c2ncn2ncnc32)cc1OCC	-2	·	·	102
N#CCCN(/N=C/c1ccc(-c2ccc(Br)cc2)o1)C1=NS(=O)(=O)c2ccccc21	-4	119	70	105
C=CCn1c(Sc2ncnc3c2cnn3-c2ccccc2)nnc1-c1ccncc1	-2	95	84	105
COc1ccccc1C(=O)C1C(=O)NC2(C)CC1c1cccc(OC)c1O2 (stereo not given)	-5	90	93	101
COc1ccc2c(CC(=O)N(C)CC3COc4ccccc4O3)coc2c1 (stereo not given)	-36	91	87	·

# Among those listed so far, 2 contain a nitro group on carbon:
SMILES	HCMV UL50-53 inh	Sa growth 42C	Sa growth 42C second temp	GIV-Gai inh
Cc1cccc(-c2nc3cc(NC(=O)c4cc([N+](=O)[O-])c(C)c([N+](=O)[O-])c4)ccc3o2)c1	-12	·	·	103
COc1ccccc1Nc1cc(N(C)C)c2nonc2c1[N+](=O)[O-]	-12	·	·	114

# (more compounds)
SMILES	HCMV UL50-53 inh	Sa growth 42C	Sa growth 42C second temp	GIV-Gai inh
O=C(CN1CCCN(Cc2ccccc2Cl)S1(=O)=O)Nc1ccc2c(c1)OCCO2	-13	91	90	103&100
COc1ccc(Nc2nc3c(S(=O)(=O)c4ccccc4)nnn3c3ccc(Cl)cc23)cc1	6	89	78	110
Cc1cc(C)cc(NS(=O)(=O)c2ccc3c(c2)CC(=O)N3)c1	·	97	77	104
COC(=O)c1c(C)[nH]c(C(=O)CN(C)CC(=O)Nc2c(C)cc(C)cc2C)c1C	-10	117	96	·
COc1ccc(-c2nn(-c3ccccc3)cc2CC(=O)O)cc1	-35	76	81	·
O=C(CSc1ccccc1)N1CCc2ccccc21	44	93	89	105
CCn1c(=O)n(-c2ccccc2)c(=O)c2c1c1cc(OC)ccc1n2C	-45	97	90	104
COc1ccc(-c2cc3ccc(O)c(CN4CCC(C)CC4)c3oc2=O)cc1OC	·	100	90	107
O=C(N1CCN(c2ccccc2F)CC1)N1c2ccccc2Sc2ccccc21	-27	86	77	99
CCOc1nc2cccnc2n(CC(=O)Nc2ccccc2C(=O)OC)c1=O	-29	·	·	104
CC(=O)Nc1ccc(S(=O)(=O)N2CCc3ccccc32)cc1	-18	101	35	·
Cc1cc(C)c(NC(=O)CSc2nc3nc(C)cc(C)n3n2)c(C)c1	1	87	103	107
Cc1cccc(N(CC(=O)NCCc2ccccc2)S(=O)(=O)c2ccccc2)c1C	-31	86	84	102
CCOc1ccc(-n2cc(-c3ccccc3)c3c(NCCc4ccccc4)ncnc32)cc1	·	87	82	101
O=C(Nc1cccc(-c2cn3cccnc3n2)c1)C1CCCC1	·	91	81	103
CC(=O)Nc1ccc(NCC(O)Cn2ccc3ccccc32)cc1 (stereo not given)	7	84	88	107
OCCSc1n[nH]c(-c2ccccc2)n1	-15	83	105	105
Cc1cccc(C(=O)c2ccccc2C(=O)O)c1O	2	104	97	·
Cc1cc(C)cc(N2C(=O)c3cc(C)nn3CC2(C)C(=O)NCc2ccccc2)c1 (stereo not given)	-5	·	·	99
C/C(=N\NC(=O)CSc1nnc(-c2ccccc2)n1-c1ccccc1)c1cccs1	-29	85	82	96
CCc1ccc(S(=O)(=O)N2CCCC2C(=O)OC)cc1 (stereo not given)	-7	109	91	102
Cc1cc(NC(=O)COc2coc(CN3CCc4ccccc4C3)cc2=O)no1	-9	87	96	107
CC(c1ccccc1)n1c(SCc2cc(=O)oc3cc(O)ccc23)n[nH]c1=O (stereo not given)	-59	100	84	106
CN1C(=C(C#N)C(=O)CN2c3cccc4cccc(c34)S2(=O)=O)N(C)c2ccccc21	-27	108	88	·
COc1cc(OC)c(NC(=O)Cn2c(C(=O)OC(C)C)cc3ccsc32)cc1Cl	-21	·	·	105
O=C(Cn1nc(C(F)(F)F)c2c1CCCC2)N1CCCc2ccccc21	-1	143	93	·
COc1cc(Nc2ncc3c(n2)CCN(S(=O)(=O)c2ccc(C)cc2C)C3)cc(OC)c1	-7	·	·	108
CCCc1nc(SC)ncc1C(=O)N1CCN(c2ccc(Cl)cc2)CC1	·	87	67	103
O=C(COc1ccccc1C(=O)O)NC12CC3CC(CC(C3)C1)C2	-3	94	98	·
O=C(CCCCn1c(=O)c2ccccc2n(Cc2ccccc2Cl)c1=O)NCCc1ccccc1	18	96	104	102
CCCNS(=O)(=O)c1ccc(-n2cnnn2)c(OC)c1	7	98	77	107
Cc1cc(C)cc(NC(=O)N2CCN(c3ccc(=O)n(-c4ccc(F)cc4)n3)CC2)c1	-39	·	·	102
CCN(CC)c1ccc(NC(=O)c2cnn(-c3ccccc3)c2-n2cccc2)c(C)c1	12	101	98	99
O=C(COC(=O)c1cccc(NS(=O)(=O)c2ccc3[nH]c(=O)c(=O)[nH]c3c2)c1)c1ccccc1	-14	94	81	98
COc1ccc(-c2ocnc2C(=O)NCc2ccccc2)cc1	-12	102	98	113
CCCCCCCCCC(=O)NC(CN1CCOCC1)[C@H](O)c1ccccc1 (stereo not given in full)	-5	·	·	107
O=C(CSc1nc(-c2cccc(Cl)c2)nc2cc(=O)[nH]n12)Nc1ccccc1	·	89	83	99
O=C(NCCOc1ccccc1Cl)c1ccccc1Br	-28	93	89	·
COC(CNCc1cc(Cl)c2c(c1)OCCCO2)OC	-34	92	93	·
CC(N=C1CCCc2ccccc2N1)C(=O)O (stereo not given)	·	92	84	102
Cc1ccc(NC(=O)Nc2nnc(N3CCCCC3)s2)c(C)c1	-4	103	81	102
CC(=NC(C)C)C1=C(O)C(C)OC1=O (stereo not given)	-23	104	85	·
CCc1cccc(CC)c1NC(=O)c1cccs1	8	98	90	·
CN(C)C(=O)CSc1nnc(-c2ccco2)o1	-10	75	94	·
CN(Cc1ccccc1)C(=O)CCS(=O)(=O)c1ccc2c(c1)oc(=O)n2C	·	85	90	106
COc1ccccc1NC(=O)C(C)OC(=O)c1ccc(O)cc1 (stereo not given)	3	120	80	·
COc1ccc(N(C)S(=O)(=O)c2ccc3c(c2)CC(C)N3C(=O)C2CC2)c(OC)c1 (stereo not given)	-34	81	85	105

# Screening results as filed in PubChem BioAssay.
